TRPML1 agonist: human mucolipin-1 channel agonism; Q9GZU1; TRPML1-expressing cells, Ca2+ dye fluorescence, FDSS; host cell line not named in the record; reference of the full effect not given here; activation, % (no concentration beside the values); 410,000 compounds, 0.12% hits; in the data active = activation above about 50%; inconclusive = about 30% to 50%; inactive = below about 30%; further: 0% is about no effect; the text of the record puts the active cut at 80%
Target sequence (Q9GZU1 whole entry, looked up): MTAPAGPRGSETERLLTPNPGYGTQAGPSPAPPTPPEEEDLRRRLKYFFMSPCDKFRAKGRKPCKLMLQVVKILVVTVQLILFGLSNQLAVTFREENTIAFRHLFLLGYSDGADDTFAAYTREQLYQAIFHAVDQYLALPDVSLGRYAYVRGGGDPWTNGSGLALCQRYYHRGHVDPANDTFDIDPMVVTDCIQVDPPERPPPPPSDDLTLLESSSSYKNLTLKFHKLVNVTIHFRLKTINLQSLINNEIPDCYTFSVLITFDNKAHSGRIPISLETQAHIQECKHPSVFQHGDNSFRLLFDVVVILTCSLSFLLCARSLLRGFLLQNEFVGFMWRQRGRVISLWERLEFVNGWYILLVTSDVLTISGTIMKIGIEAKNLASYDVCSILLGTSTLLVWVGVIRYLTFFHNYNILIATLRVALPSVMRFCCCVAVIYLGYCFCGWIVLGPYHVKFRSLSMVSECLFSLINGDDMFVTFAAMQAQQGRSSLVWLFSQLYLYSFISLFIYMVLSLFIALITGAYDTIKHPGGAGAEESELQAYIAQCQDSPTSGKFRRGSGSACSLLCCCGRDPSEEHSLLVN
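Kinetic FDSS Ca2+ read in Tet-induced TRPML1-DL cells (ABD Ca8 dye plus quencher, 45-90 min RT loading): baseline, then compound, then 110 s agonist window; EC80 agonist 54-4 at 4uM final added afterwards for a 110 s antagonist window.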
Menin MLL FP FL: displaces fluorescein MLL peptide from human menin; FP activity change, % at 61.4 µM; Fluorescence polarization, fluorescein-MLL peptide displacement from menin; 290,000 tested, under 10 active; inconclusive = falling polarisation curve, or a change in total fluorescence; inactive = total fluorescence flat and polarisation flat or rising; no compound was filed as active; the % refers to the polarisation; negative = inhibition;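 further: % of control where 0% means no effect; inhibitors lower the polarisation; unlabelled MLL peptide was the positive control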
gsp agonist: activates gsp, the McCune-Albright syndrome mutation. gsp mutant cells, cAMP HTRF, 30 min; control for the full effect not named in the record. Potency, µM (doses to about 76.9 µM), for the others: at the highest dose activation (cAMP increase), most hits filed as activators. 340,000 compounds, 0.13% hits. AID 624287; active = well fitted activation curve with a large enough effect; inconclusive = small, poorly fitted or top-dose-only effect, or another doubt; inactive = no such curve, though single readings can be large or run the other way; cell line not stated here;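 further: phosphodiesterase inhibitor Ro 20-1724 added with compounds to block cAMP breakdown; potency means the concentration at half of the fitted maximal effect; nearly all actives have a fitted effect of over 60% in size; about a fifth of the inactives were tested at one dose only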
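Cells stably selected in G418 were plated at 2000/well, grown 16-24 hr, then given compounds in DMSO with the PDE inhibitor […] (300 uM solution added) for 30 min at 37C; cAMP was read by HTRF.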
ClpP mod: qHTS Assay for Activators of ClpP; ATP-dependent Clp protease proteolytic subunit (Bacillus subtilis (strain 168)), P80244; purified B. subtilis ClpP, FRET peptide cleavage, 20 min; Potency, µM (top dose mostly 57.5 µM), without a hit: top-dose activity change, negative = active; 340,000 compounds, 1.9% hits; active = well fitted falling curve with a large enough effect; inconclusive = small, poorly fitted or top-dose-only effect; inactive = no such curve, though single readings can be large or run the other way; further: potency means the concentration at half of the fitted maximal effect; the source files actives as falling curves though it sought activators and does not explain the sign; nearly all actives have a fitted effect of over 65% in size; many hits overshoot -100%
Target sequence (P80244 whole entry, looked up): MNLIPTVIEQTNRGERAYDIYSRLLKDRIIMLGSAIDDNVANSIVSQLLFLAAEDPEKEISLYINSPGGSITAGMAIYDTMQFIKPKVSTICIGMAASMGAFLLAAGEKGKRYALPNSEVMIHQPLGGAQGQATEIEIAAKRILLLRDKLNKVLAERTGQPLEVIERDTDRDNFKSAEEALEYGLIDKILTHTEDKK
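ClpP 10 microg/mL final, pH 8 Tris/KCl buffer with BSA, glycerol, Tween-20; compound pinned in; FRET-FV substrate; RT 20 min; Ex320/Em430; ΔFRET vs ADEP 5.8 microM, DMSO, no enzyme.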
gsp antag: gsp mutant antagonism; gsp-mutant cells, cAMP HTRF, 30 min; control for the full effect not named in the record; Potency, µM (highest dose often 76.9 µM), without a hit: at the top dose activity change, negative = inhibition, usual class: inhibitors; 340,000 compounds, 0.4% hits; AID 624288; active = falling curve of any shape with a large fitted effect; inconclusive = falling curve, mostly with a smaller effect; inactive = flat or rising curve; cell line not stated here;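 further: intracellular cAMP measured with PDE inhibitor Ro 20-1724 present during compound exposure; potency means the concentration at half of the fitted maximal effect; on the % scale 0 is the no-effect control and ±100 the full control effect; nearly all actives have a fitted effect of over 65% in size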
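HTRF cAMP measurement after 30 min RT detection following 30 min, 37C compound treatment alongside […] (added as 300 uM solution) in G418-selected cells seeded at 2000/well and grown 16–24 h.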
TRPML1 inh: blocks the human TRPML1 channel | Q9GZU1 | TRPML1-inducible cells, Ca2+ dye fluorescence, FDSS; active compounds read low; inhibition of EC80 agonist-evoked calcium signal | 390,000 compounds, 0.02% hits | activity change, negative = inhibition, % (concentration not given with the values) | AID 624415; in the data active means activity change below about -50%; inconclusive means about -30% to -50%; inactive means above about -30%;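 further: stimulus is agonist 54-4 at its EC80 concentration; on the % scale 0 is the no-effect control and ±100 the full control effect; the text of the record puts the active cut at -80%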
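Calcium fluorescence in TRPML1-DL cells induced overnight with Tet: a 110 s read after compound pin addition, then a 110 s antagonist read after challenge with 54-4 at 4 uM final (EC80).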
An asterisk follows results filed as active; u = inconclusive; x = not tested or not shown; & = joins results of further samples; [ ] = another dose, or the depositor's remark. Not a hit list; overall some 2.1% were active at least once.

[1] CC(=O)c1ccc(NC(=O)c2ccccc2-c2ccccc2C(=O)O)cc1
[2] COc1ccc(Nc2cc(C(=O)NCc3ccccc3)c3ccccc3n2)c(OC)c1
[3] CCCCNC(=O)C1Cc2cc(S(=O)(=O)N3CCCCC3)ccc2N1C(C)=O (stereo not drawn)
[4] COC(=O)CNc1nc(Cl)nc(Nc2ccc(Cl)cc2)n1
[5] COc1cccc(-c2ccc(C#N)c(SCC(=O)NCc3ccco3)n2)c1
[6] CCCn1c(SCC(O)c2ccccc2)nc2ccccc21 (stereo not drawn)
[7] CCOC(=O)c1c(C)[nH]c(C)c1C(=O)COC(=O)c1ccc(S(=O)(=O)C(F)F)cc1
[8] O=c1cc(-c2ccccc2F)oc2ccccc12

compound no.,1,2,3,4,5,6,7,8
TRPML1 agonist,-0.3,5.8,0.2,1.0,-0.3,0.5,-0.5,0.8
Menin MLL FP FL,-5.5,x,x,5.7,4.6,x,x,1.5
gsp agonist,-32%[inhibitor],x,7%,1%[15.4 µM],u,x,2%,u
ClpP mod,x,3.3%,-1.0%,x,u,0.4%,0.2%,-2.8%
gsp antag,-8%,x,-10%,12%,-20%,x,0%,-6%
TRPML1 inh,-6,28,1,-4,4,13,22,-24

[9] Cc1cnc(C(=O)Nc2ccc(S(=O)(=O)NCC(C)C)cc2)cn1
[10] CCOc1ccccc1N(CC(=O)N1CCCCCC1)S(=O)(=O)c1ccc(C)cc1
[11] O=C(NCCNC(=O)c1ccc(Br)o1)c1cccnc1
[12] COc1ccccc1-c1c(C)oc2c(CN3CCOCC3)c(O)ccc2c1=O
[13] CCOC(=O)C1=C(C)NC(C)=C(C(=O)OCC)C1C(=O)OCC(=O)N1CCc2ccccc21
[14] CCOC(=O)N1CCN(C(=O)c2ccc(OC(C)=O)cc2)CC1
[15] COc1ccc(OC)c(/C(O)=C/C(=O)C(=O)Nc2cc(C)cc(C)c2)c1
[16] CC(=O)Nc1cc(C(=O)NCc2ccc(F)cc2)ccc1Sc1ccc(C)cc1

compound no.,9,10,11,12,13,14,15,16
TRPML1 agonist,0.0,3.9,0.4,2.5,0.7,5.8,0.5,0.6
Menin MLL FP FL,2.9,x,0.9,-1.3,-0.4,-2.1,u,x
gsp agonist,0%,7%,4%[15.4 µM],u,-4%,-5%[15.4 µM],-33%[inhibitor],x
ClpP mod,-1.4%,-1.6%,25µM*,3.4%,-5.8%,x,-5.8%,-3.7%
gsp antag,-1%,-13%,-3%,1%,-6%,x,-17%,x
TRPML1 inh,4,2,0,12,-3,-7,-10,16

[17] COc1ccc(S(=O)(=O)NCCC(=O)Nc2ccc(C)cc2)cc1
[18] CCOc1ccccc1C(=O)Nc1c[nH]c(=O)[nH]c1=O
[19] COCCCNC(=O)c1cc2cc([N+](=O)[O-])cc(OC)c2oc1=O
[20] CCN1CCN(C(=O)CN(c2ccc(F)c(Cl)c2)S(C)(=O)=O)CC1
[21] CCc1nc2ccc(C)cc2c(C(=O)NC2CCCCC2C)c1C (stereo not drawn)
[22] O=C(c1cccs1)N1CCC(Cc2ccccc2)CC1
[23] Cc1ccc(C(=O)NCCn2cc(SCC(=O)Nc3nnc(C)s3)c3ccccc32)cc1
[24] S=c1nc[nH]c2nc[nH]c12

compound no.,17,18,19,20,21,22,23,24
TRPML1 agonist,-0.1,-1.0,-0.4,1.6,0.3,-0.4,0.6,-0.5&-0.6
Menin MLL FP FL,1.0,-11,-5.7,0.1,-0.8,-2.0,3.4,1.4&0.4
gsp agonist,-9%[15.4 µM],2%,5%,5%,-47%[inhibitor],u,-15%,x
ClpP mod,x,x,x,x,-5.1%,0.8%,-0.8%,-0.8%&1.2%
gsp antag,11%,10%,0%,8%,-4%,-2%,u,-2%&2%
TRPML1 inh,-4,9,14,-14,22,-22,12,3&18

[25] CC1(c2nnc(Cc3ccccc3)o2)CC(c2ccccc2)=NO1 (stereo not drawn)
[26] CC(C)CN1C(=O)C(=O)N(CC(=O)N2CCC(Cc3ccccc3)CC2)C1=O
[27] CCOC(=O)c1c(C)c(C(=O)NCc2ccco2)c(C)n1CC
[28] Cc1ccc(C(=O)OCc2cc(=O)n3nc(-c4cccs4)sc3n2)cc1
[29] COc1ccc(-n2c(-c3ccc(Br)cc3)c[n+]3c2CCC3)cc1
[30] CCc1ccccc1NC(=O)CN1CCN(C(=O)c2cc(C3CC3)nn2-c2ccccc2)CC1
[31] COc1ccc(-n2c(=O)c3c4c(sc3n(Cc3ccccc3Cl)c2=O)CCC4)c(OC)c1
[32] COC(=O)c1[nH]c2c(c1C)C(=O)CCC2

compound no.,25,26,27,28,29,30,31,32
TRPML1 agonist,-0.3,-0.5,-0.7,-0.8,-0.2,0.3,-0.2,0.0
Menin MLL FP FL,x,-1.8,-1.0,x,-2.5,x,x,5.8
gsp agonist,-12%,17%[15.4 µM],u,x,10%,-23%,x,-42%[inhibitor]
ClpP mod,-2.0%,x,x,-9.9%,x,2.1%,-0.4%,-1.2%
gsp antag,7%,-7%,5%,x,0%,x,x,-2%
TRPML1 inh,-1,13,1,8,11,19,18,-7

[33] COc1ccccc1C(=O)C1CCCN(C(=O)c2ccco2)C1 (stereo not drawn)
[34] O=C(COC(=O)C1=COCCO1)NCc1ccc(Cl)cc1
[35] C=CCc1ccccc1OCC(O)CN1CCN(C(=O)OCC)CC1 (stereo not drawn)
[36] CC1CCC(C(C)C)C(OP(=O)(c2ccccc2)C(O)c2ccncc2)C1 (stereo not drawn)
[37] Cc1ccc2cc3cc(C(=O)N4CCCCC4C)oc3nc2c1 (stereo not drawn)
[38] CC1CCCCN1CCNC(=O)c1ccc(Cn2c(SCc3ccccc3)nc3cccnc32)cc1 (stereo not drawn)
[39] Cc1ccc(CCNc2ncnc3onc(-c4ccc(F)cc4)c23)cc1
[40] O=C(COC(=O)c1cc(S(=O)(=O)N2CCOCC2)ccc1O)Nc1cc(S(=O)(=O)N2CCCC2)ccc1Cl

compound no.,33,34,35,36,37,38,39,40
TRPML1 agonist,0.9,3.7,-1.7,2.0,-0.2,-0.7,2.7,-0.7
Menin MLL FP FL,-2.5,1.4,7.6,1.9,0.0,x,x,5.0
gsp agonist,-2%,-16%,12%,u,-11%,x,x,-20%[15.4 µM]
ClpP mod,-11%,-3.8%,-3.1%,1.8%,-18%,25µM*,0.4%,x
gsp antag,-3%,4%,2%,-2%,-17%,x,x,-15%
TRPML1 inh,28,-16,10,10,-25,1,0,-6

A different layout for part of the listing above.
item	canonical_smiles	TRPML1 agonist	Menin MLL FP FL	gsp agonist	ClpP mod	gsp antag	TRPML1 inh
37	Cc1ccc2cc3cc(C(=O)N4CCCCC4C)oc3nc2c1 (stereo not drawn)	-0.2	0.0	-11%	-18%	-17%	-25
38	CC1CCCCN1CCNC(=O)c1ccc(Cn2c(SCc3ccccc3)nc3cccnc32)cc1 (stereo not drawn)	-0.7	x	x	25µM*	x	1
39	Cc1ccc(CCNc2ncnc3onc(-c4ccc(F)cc4)c23)cc1	2.7	x	x	0.4%	x	0
40	O=C(COC(=O)c1cc(S(=O)(=O)N2CCOCC2)ccc1O)Nc1cc(S(=O)(=O)N2CCCC2)ccc1Cl	-0.7	5.0	-20%[15.4 µM]	x	-15%	-6

Back to the main list, starting 3 compounds before the break.
[38] CC1CCCCN1CCNC(=O)c1ccc(Cn2c(SCc3ccccc3)nc3cccnc32)cc1 (stereo not drawn)
[39] Cc1ccc(CCNc2ncnc3onc(-c4ccc(F)cc4)c23)cc1
[40] O=C(COC(=O)c1cc(S(=O)(=O)N2CCOCC2)ccc1O)Nc1cc(S(=O)(=O)N2CCCC2)ccc1Cl
[41] NC(=O)C1CCN(C(=S)NCCc2ccccc2)CC1
[42] CCC(=O)Nc1cc2c(cc1C(=O)CC)OCCO2
[43] O=c1c(N2CCc3ccccc3C2)csc2ccccc12
[44] O=C(COC(=O)/C=C/c1ccc(Cl)cc1)Nc1ccccc1
[45] CCOC(=O)CN(C(=O)CN1CCC(n2nnc3cc(C)ccc32)CC1)c1ccccc1
[46] CCOC(=O)Cn1c(=O)sc2ccccc21
[47] Cc1cccc(C(=O)OCC(=O)Nc2ccc(F)cc2)c1
[48] Cc1oc(-c2ccccc2Cl)nc1CS(=O)CC(=O)NCCc1ccccc1 (stereo not drawn)

compound no.,38,39,40,41,42,43,44,45,46,47,48
TRPML1 agonist,-0.7,2.7,-0.7,1.3,1.6,1.8,-0.5,-0.3,-0.1,0.2,-0.3
Menin MLL FP FL,x,x,5.0,-0.5,1.1,x,-2.4,1.0,1.4,4.1,x
gsp agonist,x,x,-20%[15.4 µM],9%[15.4 µM],-23%,x,-1%[15.4 µM],0%,6%,-8%[15.4 µM],-2%
ClpP mod,25µM*,0.4%,x,-0.9%,-8.1%,-14%,x,0.5%,0.0%,x,-0.4%
gsp antag,x,x,-15%,7%,8%,x,-11%,6%,5%,3%,-17%
TRPML1 inh,1,0,-6,-6,-16,4,0,-13,-6,13,-4

[49] CCC1=C(OC(=O)N(CC)CC)N2C(=O)OC(=NCC(=O)OC)[C@]2(C)[C@H]2C1=CC[C@H]1C(=O)N(CC(=O)OC)C(=O)[C@H]12
[50] CN(CC(O)CON=C1c2ccccc2-c2ccccc21)S(=O)(=O)c1ccc(Br)cc1 (stereo not drawn)
[51] O=C(Nc1nsc(-c2ccccc2)n1)c1ccncc1
[52] O=C(CSc1nnc2sc3ccccc3n12)c1ccco1
[53] C=C1CCC[C@]2(C)C[C@H]3OC(=O)C(CNC(C)CCCC(C)C)[C@H]3CC12 (stereo partly drawn)
[54] CCSc1nnc(NC(=O)Cc2ccc(OC)c(OC)c2)s1

compound no.,49,50,51,52,53,54
TRPML1 agonist,-0.3,0.1,-0.4,-0.2,-1.6,-0.3
Menin MLL FP FL,-2.4&3.0,-0.2,0.3,-1.6,-0.9,-8.8
gsp agonist,x,-6%[15.4 µM],-3%,2%,11%[15.4 µM],18%
ClpP mod,-0.5%,-6.5%,-7.6%,-0.5%,-6.4%,-1.3%
gsp antag,10%,-9%,0%,3%,2%,2%
TRPML1 inh,-10,-2,19,-2,-1,5

Bioassay records (PubChem)
